Screening data (PubChem)
VDR inhibitor: inhibitors of human vitamin D receptor; 400,000 tested, 0.93% active; Potency, µM, inactives show max response, negative = inhibition, usual class: inhibitors; VDR-SRC2-3 peptide fluorescence polarization, 2 h; AID 504847; active means well fitted inhibition curve with a large enough effect; inconclusive means small, poorly fitted or top-dose-only effect, or another doubt; inactive means no such curve, though single readings can be large or run the other way; further: series mostly up to about 120 µM
Target sequence (P11473 whole entry, looked up): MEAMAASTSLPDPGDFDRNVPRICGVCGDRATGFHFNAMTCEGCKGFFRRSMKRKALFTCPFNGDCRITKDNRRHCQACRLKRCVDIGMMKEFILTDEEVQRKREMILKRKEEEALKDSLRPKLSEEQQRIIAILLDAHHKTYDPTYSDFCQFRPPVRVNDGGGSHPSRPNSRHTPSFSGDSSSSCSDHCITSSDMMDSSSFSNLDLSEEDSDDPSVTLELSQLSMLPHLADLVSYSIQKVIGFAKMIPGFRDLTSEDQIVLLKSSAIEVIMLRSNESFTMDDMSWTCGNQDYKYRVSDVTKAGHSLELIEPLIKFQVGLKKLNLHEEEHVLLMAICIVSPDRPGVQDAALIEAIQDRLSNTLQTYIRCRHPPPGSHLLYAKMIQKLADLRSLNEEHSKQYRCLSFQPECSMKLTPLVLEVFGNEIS
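Measured by FP: displacement of SRC2-3 coactivator peptide from VDR by library compounds, following a two-hour ambient incubation.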
The depositor's hits bear a star; ? = inconclusive; & = joins results of further samples; [ ] = another dose, or the depositor's remark. On the % scale 0 is the no-effect control and ±100 the full control effect; potency means the concentration at half of the fitted maximal effect.

SMILES	VDR inhibitor
CC(C)C(=O)c1cn(CC(=O)NCC2CCCO2)c2ccccc12 (centres undefined)	-12%
Cc1c(C(=O)N/N=C/c2cccnc2)nnn1-c1nonc1N	0%
O=C(NCC(c1ccc(F)cc1)N1CCOCC1)c1ccc(OCc2ccccc2)cc1 (centres undefined)	-9%
CC(=O)c1cn(CC(=O)Nc2ccc(C)cc2)c2ccccc12	-1%
CCN1C(=O)Cc2cc(S(=O)(=O)NCCc3ccccc3)ccc21	2%
O=C(NCc1nc2ccccc2[nH]1)c1cccc(S(=O)(=O)N2CCCCC2)c1	-24%
Cc1ccc(CNC(=O)CCS(=O)(=O)c2ccc3c(c2)NC(=O)C(C)S3)cc1 (centres undefined)	-2%
CCc1nc2oc3cc(OC)ccc3c(=O)c2c(=O)n1Cc1ccccc1	-3%
CCN(C(=O)COC(=O)c1ccc2c(=O)n3c(nc2c1)CCC3)C1CCS(=O)(=O)C1 (centres undefined)	-6%
C/C(CC(=O)Nc1ccc2c(c1)OCCO2)=N\NC(=O)c1cccc(O)c1	7%
CCCCN(C(=O)Cc1ccc2c(c1)OCCO2)c1c(N)n(CCC)c(=O)[nH]c1=O	-2%
Cc1ccc(N2CCN(c3nc4ccc(C)cc4n4nnnc34)CC2)c(C)c1	-6%
Cc1ccc(C23CC4CC(CC(C(=O)N5CCOCC5)(C4)C2)C3)cc1	1%
CSc1nc(N)nc2c1ncn2CC(=O)N1CCN(Cc2c(C)cc(C)cc2C)CC1	-8%
Nn1c(SCC(=O)Nc2ccccc2Oc2ccccc2)nnc1C1CC1	-1%
Cc1ccc(/C=N/NC(=O)C(O)c2ccccc2)o1 (centres undefined)	-11%
Cc1ccc(C(=O)n2nc(C)c(S(=O)(=O)N3CCOCC3)c2C)cc1C	-4%
O=C(Nc1ccccc1N1CCCC1)c1ccc(Br)o1	14%
Cc1ccc(/C=C2\SC(N3CCCCC3)=NC2=O)cc1	?
C=CCC(CC=C)(NC(=O)c1cccc(C)c1)c1ccccc1	17%
O=C(Nc1ccc2oc(-c3ccncc3)nc2c1)c1ccc(Br)o1	-4%
CCc1cccc(C)c1NC(=O)Cn1c(=O)n(-c2cccc(C)c2)c(=O)c2c1c1cc(C)ccc1n2C	2%
COc1ccc(C(O)(C(C)C)C(CN2CCOCC2)c2ccc(Cl)cc2)cc1 (centres undefined)	-18%
C#CC[N+](C)(C)C(C#Cc1ccccc1)CC=C (centres undefined)	-4%
CCN(C[C@H]1N[C@@](C)(C(=O)OC)[C@H]2C(=O)N(Cc3ccccc3)C(=O)[C@@H]12)C(=O)c1ccc(C(C)(C)C)cc1	-9%

In a second layout: entries from further up
> C=CCC(CC=C)(NC(=O)c1cccc(C)c1)c1ccccc1
  VDR inhibitor: 17%

> O=C(Nc1ccc2oc(-c3ccncc3)nc2c1)c1ccc(Br)o1
  VDR inhibitor: -4%

(continued)
SMILES	VDR inhibitor
O=C(CSc1nc(Nc2ccccc2)nc(N2CCOCC2)n1)N1CCCC1	6%
Clc1cccc(CSc2nc3ccncc3[nH]2)c1	1%
Cc1ccccc1OCC(O)CN1CCN(c2ccccn2)CC1 (centres undefined)	-11%
COc1ccccc1NC(=O)CN1C(=O)CC(C)S(=O)(=O)c2ccccc21 (centres undefined)	6%
C#CC1(NC(=O)NS(=O)(=O)c2ccc(C)cc2)CCCCC1	32%[activator]
NS(=O)(=O)c1ccc(CCNC(=O)c2cncc(Br)c2)cc1	?
CC(=NCCN1CCN(C(=S)Nc2ccccc2)CC1)C1=C(O)CC(C)(C)CC1=O	8%
O=c1c2cnn(-c3ccccc3)c2nc(-c2cccs2)n1-c1cccc(Cl)c1	0%
N#Cc1nc(-c2ccccc2Cl)oc1NCC1CCCO1 (centres undefined)	-8%
Cc1noc(C)c1COc1ccc2ccc(=O)oc2c1	-16%
COc1cccc(-c2nc(CS(=O)(=O)CC(=O)Nc3c(C)cccc3C)c(C)o2)c1	2%
CC(=O)[C@H]1[C@H](C#N)C[C@H]2[C@@H]3CC=C4C[C@@H](O)CC[C@]4(C)[C@H]3CC[C@@]21C	9%&5%&-9%
Fc1ccc(NC(=S)NC2CC3CCC(C2)N3Cc2ccco2)cc1 (centres undefined)	9%
Clc1ccc2nc(-c3ccc(Cl)nc3)[nH]c2c1	9%
CC(C)N1CCc2[nH]c(=S)[nH]c(=O)c2C1	-9%
O=S(=O)(/N=C(\c1ccccc1)N1CCOCC1)c1cccs1	7%
CSc1ccc(/C=C(/NC(=O)c2ccccc2)C(=O)NCCN2CCOCC2)cc1	-11%
Cc1csc(NC(=O)CSCC(=O)O)c1-c1nc2ccccc2s1	-12%
COc1ccc2c(c1)c1c(c(=O)n(-c3ccc(OC)c(OC)c3)c(=O)n1Cc1ccc(F)cc1)n2C	9%
Cc1c(C(=O)Nc2cccc(C(F)(F)F)c2)sc2nc3n(c(=O)c12)CCC3	12%
COc1cc(C)c2c(c1C=O)Oc1c(c(C)c(O)c3c1C(O)OC3=O)OC2=O (centres undefined)	45µM*
CCCNC(=O)C1(CC2CC(c3ccccc3)=NO2)CCN(C(=O)CCCCCBr)CC1 (centres undefined)	-1%
O=C(CN(Cc1ccco1)C(=O)c1cccc(F)c1)Nc1ccccc1C(F)(F)F	-15%
O=c1cc[nH]c2c(C(F)(F)F)cccc12	33%[activator]
N#C/C(=N\Nc1ccccc1F)C(=N)N1CCCCC1	-8%

Part of the list above in order of heavy-atom count, high to low:
SMILES	VDR inhibitor
CCCNC(=O)C1(CC2CC(c3ccccc3)=NO2)CCN(C(=O)CCCCCBr)CC1 (centres undefined)	-1%
Cc1c(C(=O)Nc2cccc(C(F)(F)F)c2)sc2nc3n(c(=O)c12)CCC3	12%
Cc1noc(C)c1COc1ccc2ccc(=O)oc2c1	-16%
O=c1cc[nH]c2c(C(F)(F)F)cccc12	33%[activator]

The results go on.
SMILES	VDR inhibitor
COc1cccc(NC(=O)N2CCC(NC(=O)C(Cc3ccccc3OC)NC(C)=O)CC2)c1 (centres undefined)	4%
CS(=O)(=O)N(CC(=O)Nc1cccc(Br)c1)Cc1ccccc1	0%
O=C(CSc1ccc(-c2ccccn2)nn1)Nc1nccs1	6%
CC(C)(C)NC(=O)C(c1ccco1)N(C(=O)Cn1nnc(-c2ccc(F)cc2)n1)c1ccccc1F (centres undefined)	-20%
CC(=O)OC1(C(F)(F)F)Oc2ccccc2NC1=O (centres undefined)	-16%
COc1cc(Cl)c(C)cc1NC(c1ccccc1)c1nnc(-c2ccccc2Cl)o1 (centres undefined)	-3%
O=C1/C(=C/c2ccc(O)c([N+](=O)[O-])c2)SC(=S)N1Cc1ccccc1	-18%
O=C(Nc1nnc(CCS(=O)(=O)c2ccc3ccccc3c2)s1)c1ccc([N+](=O)[O-])cc1	6%
Oc1cccc(/C=N/Nc2nn3cnnc3c3ccccc23)c1	-10%
O=c1c2c3nc4ccccc4nc3n(CC3CCCO3)c2ncn1CCc1ccccc1 (centres undefined)	-1%
Cc1ccc2[nH]c(C(F)(F)F)cc(=O)c2c1	2%
COc1ccc(NC(=O)CSCC(=O)Nc2ccc(S(=O)(=O)N3CCCCC3)cc2)cc1	-23%
Cc1nc2nc[nH]n2c(=O)c1NC(=O)CCc1ccccc1	9%
CC1(C)CC(=O)C2=C(C1)N(c1ccc(F)cc1)C(=O)NC2(C(F)(F)F)C(F)(F)F	3%
Cc1cccc(N(C(=O)c2snc(C(N)=O)c2N)C(C(=O)NCC2CCCO2)c2ccc3ncccc3c2)c1 (centres undefined)	8%
C=CCn1c(Cc2nc3ccccc3[nH]2)n[nH]c1=S	-4%
COc1ccc(C/C(N)=N/OC(C)=O)cc1OC	4%
CCN(CC)C(=O)C1CCCN(c2ccc([N+](=O)[O-])cc2/C=N/NC(=O)c2cccc(Br)c2)C1 (centres undefined)	5%
O=S(=O)(c1ccccc1C(F)(F)F)N1CCN(S(=O)(=O)c2ccccc2C(F)(F)F)CC1	-5%
C=CCc1cccc(C=Nc2c[nH]c(=O)[nH]c2=O)c1O	-21%
Cc1ccc(NC(=O)c2c(C)oc3c2C2=NCCN2C=N3)cc1F	-1%
Cc1cccc(NC(=O)N2CCCC2C(=O)Nc2ccccc2)c1 (centres undefined)	16%
Cc1ccc(-n2nnnc2-c2cnc(N3CCCC3)nc2C(F)(F)F)cc1	7%
O=C1CC(C(=O)Nc2ccc(C(=O)N3CCOCC3)cc2)C2(CCCCC2)O1 (centres undefined)	-6%
CC(=O)Nc1ccc(S(=O)(=O)N2CCN(Cc3ccncc3)CC2)cc1	-2%

A different layout for 4 compounds above:
Structure: Oc1cccc(/C=N/Nc2nn3cnnc3c3ccccc23)c1
  VDR inhibitor: -10%
Structure: O=c1c2c3nc4ccccc4nc3n(CC3CCCO3)c2ncn1CCc1ccccc1 (centres undefined)
  VDR inhibitor: -1%
Structure: Cc1ccc2[nH]c(C(F)(F)F)cc(=O)c2c1
  VDR inhibitor: 2%
Structure: COc1ccc(NC(=O)CSCC(=O)Nc2ccc(S(=O)(=O)N3CCCCC3)cc2)cc1
  VDR inhibitor: -23%

Some of these compounds in order of the VDR inhibitor value, highest first:
SMILES	VDR inhibitor
Cc1cccc(NC(=O)N2CCCC2C(=O)Nc2ccccc2)c1 (centres undefined)	16%
O=C(CSc1ccc(-c2ccccn2)nn1)Nc1nccs1	6%
COc1cccc(NC(=O)N2CCC(NC(=O)C(Cc3ccccc3OC)NC(C)=O)CC2)c1 (centres undefined)	4%

Carrying on.
SMILES	VDR inhibitor
COc1ccccc1-c1ccc2ncnc(NC3CCNCC3)c2c1	-2%
CC(C)(C)c1csc(NC(=O)c2cccnc2)n1	-4%
CCCN1CCC(=O)N([C@H](CSc2ccccc2)CC(C)C)CC1	-15%
COc1ccccc1N1CCN(C2CCN(S(=O)(=O)c3ccc4ccccc4c3)CC2)CC1	-13%
COC(=O)c1[nH]c2cc(OC)ccc2c1NC(=O)CCN1CCN(c2cccc(C)c2C)CC1	27%
Cc1ccc(S(=O)(=O)NCc2cn3ccccc3n2)c(C)c1	0%
Cc1ccc(C2OC3=C(C(=O)CC(C)(C)C3)C(N)=C2C#N)o1 (centres undefined)	-11%
O=C(c1sc2ccccc2c1Cl)N(Cc1cccs1)C1CCS(=O)(=O)C1 (centres undefined)	-15%
COc1nn(CC(=O)N2N=C(C(F)F)CC2(O)C(F)F)cc1[N+](=O)[O-] (centres undefined)	1%
O=[N+]([O-])c1ccc(-c2nc(NCc3ccccc3)c3ccccc3n2)cc1	3%
COC(=O)/C=C1\S/C(=N/NC(=O)c2ccc(OC)cc2)NC1=O	-7%
CC(C)OC(=O)CC12CN3CN(C1)CC(CC(=O)OC(C)C)(C3)C2=O	10%
O=C(c1ccc(F)cc1)N1CCCCC(S(=O)(=O)c2ccccc2)C1=O (centres undefined)	-11%
COC(=O)Nc1ccc(S(=O)(=O)Nc2ncccn2)cc1	8%
NNC(=O)CN1C(CN2CCOCC2)=Nc2ccc(Br)cc2C1c1ccccc1 (centres undefined)	0%
COCCn1c(=NC(=O)/C=C/c2ccccc2)sc2cc(NC(C)=O)ccc21	-3%
O=C(CN1C(=O)COc2ccccc21)N(Cc1ccccc1)Cc1ccccn1	2%
Nc1ccn(CC(=O)NCc2ccc3c(c2)OCO3)c(=O)n1	-3%
CN1CCN2c3ccccc3Cc3ccccc3C2C1 (centres undefined)	?
Cc1cccc(N2CCN(CCCNC(=O)c3sc4ncccc4c3-n3cccc3)CC2C)c1 (centres undefined)	5%
O=C(C1CCC1)N1CCN(S(=O)(=O)c2ccc(F)cc2)CC1	-1%
CCCNC(=O)N1C2=NC(C(=O)OC)=C(C(=O)OC)[C@@H]3N(Cc4ccccc4)c4ccccc4[C@]23C[C@H]1CO	6%
COc1ccc(C(C#N)c2cnccn2)cc1OC (centres undefined)	3%
C/C(=N\NC(=O)c1ccn(C)n1)c1ccc(NC(=O)C2CCC2)cc1	5%
FC(F)(F)c1cc(-c2ccccc2)nc(NC2CCCC2)n1	19%
(listing goes on)
SMILES	VDR inhibitor
O=C(Nc1ccccc1F)c1cccc(C(=O)Nc2ccccc2F)c1	9%
COc1ccc(N2CC(O)=C(c3n(C)c4ccccc4[n+]3C)C2=N)cc1	4%
C=CCn1c(SCC(=O)NCCc2ccccc2)nnc1C(C)NC(=O)c1cccs1 (centres undefined)	5%
Cc1cccc(C(C(=O)NC2CCCCC2)N(Cc2cccnc2)C(=O)c2csnn2)c1 (centres undefined)	16%
Cc1ccc(OCCn2cc(C(=O)c3ccco3)c3ccccc32)cc1C	-1%
CCOC(=O)N1CCN(S(=O)(=O)c2ccc(F)c(C(=O)Nc3ccc(C)c(Cl)c3)c2)CC1	-10%
C[C@H](O)CC1=C[C@H](O)[C@@H](C)OC1=O	-16%
O=[N+]([O-])c1ccc(Cl)cc1CN1CCCCCC1	-5%
COc1ccc(CCn2c(-c3cccc([N+](=O)[O-])c3)nc3nc4ccccc4nc32)cc1OC	-6%
COc1ccc(S(=O)(=O)NNC(=O)Nc2ccccc2OC)c(OC)c1	-1%
NCCOc1ccccc1-c1ccccc1	2%
OC1CN=C2CCCc3c2n(c2ccc(Cl)cc32)C1 (centres undefined)	-9%
COc1ccc(-c2nnc3cccc(Cl)n23)c(OC)c1	-14%
CCOC(=O)C(=Nc1ccccc1)NO	17%
Fc1ccccc1NC(=S)NCCc1ccc(Cl)cc1	-5%
Cc1ccc(C(=O)OCN2C(=O)c3ccccc3C2=O)c(O)c1	-22%
COc1ccccc1NS(=O)(=O)c1ccc(C)c(NC(=O)c2ccc(S(=O)(=O)N3CCCCCC3)cc2)c1	6%
S=c1[nH]nc(-c2cc(-c3ccccc3)n[nH]2)n1/N=C/C=C/c1ccco1	11%
O=C1C(NS(=O)(=O)c2cccs2)=C(N2CCN(Cc3ccccc3)CC2)C(=O)c2ccccc21	-4%
CCn1cc(/C=N\NC(=O)c2cc(-c3ccccc3OC)nc3ccccc23)c(C)n1	3%
Cc1nc2ccc(NC(=O)Nc3ccnc4cccnc34)cc2o1	6%
O=C(CCCOc1ccccc1)Nc1ccc(S(=O)(=O)Nc2ccccn2)cc1	-2%

An excerpt. The share of hits here may be higher or lower than overall.
